Screens as filed in PubChem BioAssay.
Rce1 inh = blocks yeast Ras-converting enzyme. calls only. 290,000 tested, 0.27% active. yeast membranes, quenched prenylated peptide cleavage fluorescence;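 active means fall in fluorescence gain of 50% or more versus controls, with final raw signal at or below 3038400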;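 further: plate controls were neutral control wells for no effect and wells lacking membranes for full effect; tested at 10 µM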
Target sequence (Q03530 whole entry, looked up): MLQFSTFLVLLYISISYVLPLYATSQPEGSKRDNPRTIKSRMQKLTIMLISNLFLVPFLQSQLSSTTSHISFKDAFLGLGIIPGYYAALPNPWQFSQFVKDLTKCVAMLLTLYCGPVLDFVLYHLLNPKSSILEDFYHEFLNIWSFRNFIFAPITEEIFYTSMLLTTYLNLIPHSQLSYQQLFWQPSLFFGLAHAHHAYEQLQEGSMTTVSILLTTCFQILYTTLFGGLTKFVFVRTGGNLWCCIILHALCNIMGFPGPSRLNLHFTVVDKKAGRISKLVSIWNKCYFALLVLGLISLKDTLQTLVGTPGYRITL
CSC inhib = blocks cancer stem cells; inhibition, % at 7.5 µM; 300,000 tested, 1.1% active; cancer stem cell-like cells viability, luminescence;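 active means mean at 75% or more and at least half the replicates too; tested in HMLE shEcad cells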;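 further: 0% = median of negative and 100% = median of positive control wells; the first replicate is given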
MT1-MMP act inh = inhibitors of human MT1-MMP activation. HT1080 RFP-PRO-GFP cells, GFP/RFP ratio fluorescence, overnight; percent of plate control window, DMSO zero. GFP/RFP ratio change, % at 20 µM. 360,000 tested, 0.061% active;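 active means GFP/RFP ratio change of at least 30% with cell ATP level not reduced by more than half and red fluorescence within 50% of control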; further: strong numbers were not always called active
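Assay system: HT1080 RFP-PRO-GFP cells. Benchmarks: DMSO vehicle wells and RFP-L50D-GFP reporter cell wells. Times: overnight cell settling, then overnight compound exposure, 37 °C, 5% CO2. Compound: 20 µM single dose, 1% DMSO. Read-out basis: GFP/RFP fluorescence ratio.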
Yeast UUG start = modulators of start codon recognition fidelity in yeast | activity score, % at 18.7 µM | S. cerevisiae UUG-firefly luciferase reporter, luminescence/redox ratio | 350,000 tested, 0.13% active;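 active means replicate mean at a twofold rise or more, about +100% in these data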;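 further: firefly luciferase made from a UUG start codon reports start codon fidelity; reporter light over untreated wells divided by growth signal over untreated wells; some hits fall short of that in this replicate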
HIV Env fusion = inhibitors of HIV Env-mediated cell fusion; AID 651610; HeLa-JRFL Env/CEM21 cell fusion, luciferase; 360,000 tested, 1.1% active; inhibition, % at 12.3 µM;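 active means mean replicate inhibition score of at least 50 and every replicate individually at or above 50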;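 further: 0% = plate neutral controls and 100% = maraviroc near 300 nM; one replicate is shown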
MT1-MMP act inh RFP = recorded beside MT1-MMP act inh, whose call it bears; RFP signal change, %; measured here: RFP expression control read;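 0 = vehicle wells; hits needed this value within 50% of zero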
Numbers without * were called inactive; i = inactive; · = no result given; [ ] = remark or other dose.

SMILES	Rce1 inh	CSC inhib	MT1-MMP act inh	MT1-MMP act inh RFP	Yeast UUG start	HIV Env fusion
CCOc1ccc(C(=O)N(CC(=O)Nc2cccc(C)c2C)CC2CCCO2)cc1OC (stereo unspecified)	·	·	1	8	·	·
C[C@H](c1ccccc1)N1C[C@H](COCc2ccccc2)Oc2cc(N3CC[C@H](N(C)C)C3)ccc2S1(=O)=O	·	·	3	-3	·	·
Nc1ncnc2c1ncn2C1OCC(O)C1O (stereo unspecified)	·	·	3	10	·	·
CCCCC[C@@H](C)N1C[C@H](COCc2ccccc2)Oc2cc(N3CC[C@H](O)C3)ccc2S1(=O)=O	·	·	-13	-15	·	·
COC(=O)c1c[n+]([O-])ccc1OC	·	·	6	7	·	·
CN(CCOc1ccccc1)Cc1ccccc1	·	·	2	4	·	·
Cc1ccc(C)c(N2CCN(C(c3ccccc3)c3nnnn3C(C)(C)C)CC2)c1 (stereo unspecified)	·	·	-14	-18	·	·
CCC(c1nnnn1-c1c(C)cccc1C)N1CCN(c2ccc(C(F)(F)F)cc2[N+](=O)[O-])CC1 (stereo unspecified)	·	·	-4	-6	·	·
Cc1ccc(NC(=O)COC(=O)C2=NN(c3ccccc3)C(=O)CC2)c(Br)c1	·	·	5	-2	·	·
CN(C)Cc1cc(C(C)(C)c2ccccc2)ccc1O	·	·	-2	-1	·	·
CCn1c(SCC(=O)NCC2CCCO2)nnc1-c1ccccc1OC (stereo unspecified)	·	·	-1	4	·	·
Cc1ccc(C(=O)NCC(=O)OCN2C(=O)c3ccccc3C2=O)cc1C	·	·	-2	6	·	·
Cc1ccc(-c2nnc(SCC(=O)NCCN3C(=O)CSC3=O)n2C)cc1	·	·	-2	1	·	·
O=C(CSCC(=O)c1ccc([N+](=O)[O-])cc1)c1ccc([N+](=O)[O-])cc1	·	·	3	0	·	·
COCCn1c(C)cc(/C=N/NC(=O)c2cc3ccccc3cc2O)c1C	·	·	1	-3	·	·
CNc1c2cccc(C)c2nc2c(C(=O)NCCN(C)C)cccc12	·	·	15	8	·	·
O=C(CNC(=O)c1cccc([N+](=O)[O-])c1)NC1CCCc2ccccc21 (stereo unspecified)	·	·	-2	-2	·	·
CC(=O)c1c(C)[nH]c(C(=O)CN2CCN(S(=O)(=O)c3ccccc3[N+](=O)[O-])CC2)c1C	·	·	-4	-18	·	·
Cc1cc(C)nc(SCC(=O)NNS(=O)(=O)c2ccc(C#N)cc2)n1	·	·	3	5	·	·
O=C(OCc1cn([C@@H]2C[C@H](c3ccc(Cl)cc3)N(C(=O)c3cccs3)C[C@H]2O)nn1)c1ccccc1	·	·	1	0	·	·
CCCCn1c(N)c(N(Cc2ccccc2)C(=O)COc2ccccc2F)c(=O)[nH]c1=O	·	·	-3	2	·	·
CCOc1cc(C(=O)N(C)CC(=O)Nc2cccc3ccccc23)ccc1OC	·	·	-3	2	·	·
Nc1cc(Cl)ccc1CN1C(=O)c2ccccc2C1=O	·	·	0	1	·	·
O=C(O)C(c1ccccc1)C(O)c1ccc2c(c1)OCO2 (stereo unspecified)	·	·	-3	-2	·	·
Nc1nc2cc(Cl)ccc2cc1C(=O)NCCCc1ccccc1	·	·	1	-11	·	·
COc1ccc(C[C@@H]2OC3(C=CC(=O)C=C3)O[C@H]2Cc2ccc(OC)cc2)cc1	·	·	-13	-31	·	·
CC(C)CC1C(=O)N(Cc2cn(CC3CCCCC3)nn2)CCS(=O)(=O)N1Cc1ccc(-c2ccncc2)cc1 (stereo unspecified)	·	·	-3	1	·	·
CCN(CC)CCC(=O)N1C/C(=C/c2ccccc2)C(=O)/C(=C\c2ccccc2)C1	·	·	-3	-27	·	·
CC(C)N=C1CCCC1C(=S)SSC(=S)C1CCCC1=NC(C)C (stereo unspecified)	·	·	-1	5	·	·
CSC1=NC=C(C#N)C2=NC(c3ccc(Cl)cc3)NN12 (stereo unspecified)	·	·	2	11	·	·

No new results follow: two of the compounds above.
SMILES	Rce1 inh	CSC inhib	MT1-MMP act inh	MT1-MMP act inh RFP	Yeast UUG start	HIV Env fusion
CCOc1ccc(C(=O)N(CC(=O)Nc2cccc(C)c2C)CC2CCCO2)cc1OC (stereo unspecified)	·	·	1	8	·	·
C[C@H](c1ccccc1)N1C[C@H](COCc2ccccc2)Oc2cc(N3CC[C@H](N(C)C)C3)ccc2S1(=O)=O	·	·	3	-3	·	·

The listing continues:
SMILES	Rce1 inh	CSC inhib	MT1-MMP act inh	MT1-MMP act inh RFP	Yeast UUG start	HIV Env fusion
O=C1OCCOC2CCCc3oc(-c4ccccc4)c1c32 (stereo unspecified)	·	·	2	3	·	·
N#CN1C2CCC1CC(O)(c1ccccc1)C2 (stereo unspecified)	·	·	-1	3	·	·
c1cc(-c2cc3c(o2)CCCC3OCCN2CCOCC2)cs1 (stereo unspecified)	·	·	3	6	·	·
Cc1ccc(S(=O)(=O)N2CCCCC2)cc1C(=O)OC(C)C(=O)NCC1CCCCC1 (stereo unspecified)	·	·	2	-17	·	·
CC1(C)CN(Cc2ccccc2)C(=O)[C@H]1CC(=O)Nc1ccc(Br)cc1	·	·	-5	-26	·	·
CCCCC[C@@H](C)N1C[C@H](COCc2ccccc2)Oc2cc(N3CCC[C@@H]3COC)ccc2S1(=O)=O	·	·	-6	-7	·	·
CC(C)(C)C(=O)NCc1ccc(C(=O)CSc2nnc(-c3ccncc3)n2C2CC2)s1	·	·	1	-1	·	·
CC1(C)OC2C(CO)OC(n3cnc4c(=S)nc(N)[nH]c43)C2O1 (stereo unspecified)	·	·	0	1	·	·
COc1ccccc1Cc1c(-c2ccc(C#N)cc2)nc2c(Cl)cc(C(F)(F)F)cn12	·	·	-22	3	·	·
O=C(NN=Cc1ccc(O)c(O)c1)c1ccccc1	·	·	2	1	·	·
COc1ccc([C@@H]2C[C@@H](c3ccccc3)Oc3c(C)ccc(C(C)C)c32)cc1	i	·	·	·	·	17
CC12CCC(=O)N1C(C(=O)Nc1ccc(Cl)c(Cl)c1)CS2 (stereo unspecified)	i	·	9	-4	·	·
O=C1CC(NS(=O)(=O)c2cccs2)CN1c1ccc(Cl)cc1 (stereo unspecified)	i	·	-2	-4	·	·
Cc1ccc(C(=O)CN2C(=O)NC3(CCc4ccccc43)C2=O)c(C)c1 (stereo unspecified)	i	·	3	-2	·	·
O=C(OCCOc1ccc(Br)cc1)c1ccc(Cl)c(S(=O)(=O)N2CCOCC2)c1	i	·	10	-6	·	·

Another view of some results above.
Values in the order: Rce1 inh	CSC inhib	MT1-MMP act inh	MT1-MMP act inh RFP	Yeast UUG start	HIV Env fusion
> CC1(C)CN(Cc2ccccc2)C(=O)[C@H]1CC(=O)Nc1ccc(Br)cc1
    ·	·	-5	-26	·	·
> CCCCC[C@@H](C)N1C[C@H](COCc2ccccc2)Oc2cc(N3CCC[C@@H]3COC)ccc2S1(=O)=O
    ·	·	-6	-7	·	·
> CC(C)(C)C(=O)NCc1ccc(C(=O)CSc2nnc(-c3ccncc3)n2C2CC2)s1
    ·	·	1	-1	·	·
> CC1(C)OC2C(CO)OC(n3cnc4c(=S)nc(N)[nH]c43)C2O1 (stereo unspecified)
    ·	·	0	1	·	·
> COc1ccccc1Cc1c(-c2ccc(C#N)cc2)nc2c(Cl)cc(C(F)(F)F)cn12
    ·	·	-22	3	·	·
> O=C(NN=Cc1ccc(O)c(O)c1)c1ccccc1
    ·	·	2	1	·	·
> COc1ccc([C@@H]2C[C@@H](c3ccccc3)Oc3c(C)ccc(C(C)C)c32)cc1
    i	·	·	·	·	17

Further records
SMILES	Rce1 inh	CSC inhib	MT1-MMP act inh	MT1-MMP act inh RFP	Yeast UUG start	HIV Env fusion
O=C(CSc1nc(=O)n2ccccc2n1)N1CCCCCC1	i	·	-2	5	·	·
Cc1cnc(C(=O)OC(C)C(=O)NC2CCCc3ccccc32)cn1 (stereo unspecified)	i	·	2	5	·	·
CN(CC(=O)Nc1cccc(F)c1)C(=O)c1cc(S(=O)(=O)N2CCCCC2)ccc1N1CCOCC1	i	·	1	2	·	·
O=C(Nc1ccccn1)c1ccc(Cl)c(S(=O)(=O)N2CCCC2)c1	i	·	-1	-7	·	·
CCOc1ccc(C(=O)C(C)OC(=O)Cn2c(C)csc2=O)cc1 (stereo unspecified)	i	·	-6	1	·	·
COC(=O)C1CCN(S(=O)(=O)c2cc3c4c(c2)CCN4C(=O)CC3)CC1	i	·	-1	-4	·	·
O=C1NC(Cc2ccc(O)cc2)c2nc3ccccc3c(=O)n2-c2cc(Cl)ccc21 (stereo unspecified)	·	-22	·	·	·	-43
Cc1ccc2c(c1)-n1c(nc3ccc(C)cc3c1=O)C(Cc1ccc(O)cc1)NC2=O (stereo unspecified)	·	-11	·	·	·	27
CCCCC1CCC(C(=O)N(CC(C)C)c2c(N)n(Cc3ccccc3)c(=O)[nH]c2=O)CC1 (stereo unspecified)	·	91*	·	·	·	-1
O=C(CCc1ccccc1)Oc1ccccc1[N+](=O)[O-]	·	-8	·	·	·	-2
CC(C)(C)NC(=O)C(c1ccco1)N(C(=O)Cn1nnc(-c2ccc(F)cc2)n1)c1ccccc1 (stereo unspecified)	·	19	·	·	·	2
Cc1ccc2c(c1)-n1c(nc3cc(C)ccc3c1=O)C(Cc1ccccc1)NC2=O (stereo unspecified)	·	-4	·	·	·	32
Cc1cccc(C(=O)OCC(=O)Nc2ccccc2C(=O)NC2CC2)c1	·	-3	·	·	·	1
C#CCN(Cc1ccccc1)S(=O)(=O)C=C	·	16	·	·	·	11
CC[C@]1(c2ccccc2OC)ON(c2ccccc2C(F)(F)F)C1=O	·	59	·	·	·	-10
COc1cc(OC)cc(C(=O)NNC(=O)c2nn(C)c(=O)c3ccccc23)c1	·	4	2	1	·	·
O=C(Nc1cccc(S(=O)(=O)N2CCCCC2)c1)c1cc(=O)[nH]c2ccccc12	·	-9	4	0	·	·
CCN(Cc1nc2ccccc2c(=O)[nH]1)C(=O)C1CC(=O)N(c2cccc3ccccc23)C1 (stereo unspecified)	·	1	-1	3	·	·
CCC(C)c1ccccc1NC(=O)C(C)Sc1n[nH]c(N)n1 (stereo unspecified)	·	-10	-6	0	·	·
Cc1ccc(Cn2nc(C)c(C(=O)N3CCN(S(=O)(=O)/C=C/c4ccccc4)CC3)c2C)cc1	·	38	-1	-14	·	·
COc1ccc(N2CCN(C(=O)COC(=O)c3ccc(OC(F)F)cc3)CC2)cc1	·	-6	3	3	·	·
CCOc1ccc(S(=O)(=O)N2CCCCC2)cc1NC(=O)CN1CCCC1c1cccs1 (stereo unspecified)	·	24	-33	-34	·	·
O=C(CN1CCN(CC(=O)Nc2ccc(F)cc2)CC1)NCC1(N2CCOCC2)CCCCC1	·	-1	-7	-1	·	·
CCOc1ccc(CN(C)C(=O)c2cc(S(=O)(=O)N3CCCC3)ccc2C)cc1	·	-8	1	-9	·	·
CC1CC(C)CN(C(=O)C(C)N2CCN(S(=O)(=O)c3cccs3)CC2)C1 (stereo unspecified)	·	-15	6	2	·	·
Cc1ccc(C(=O)Nc2ccccc2C(=O)NCc2ccco2)cc1	·	-16	-1	1	·	·
CCOc1cc(C(=O)OC(C(=O)NC(=O)NC)c2ccccc2)ccc1OCC(=O)N1CCOCC1 (stereo unspecified)	·	10	4	3	·	·
CCOc1ccc2nc(N3C(=O)C(O)=C(C(=O)c4ccco4)C3c3ccco3)sc2c1 (stereo unspecified)	·	16	4	1	·	·
CCCN(C(=O)c1ccc(-n2cncn2)c([N+](=O)[O-])c1)C1CCS(=O)(=O)C1 (stereo unspecified)	·	-15	-1	3	·	·
O=C1CN(C(=O)COC(=O)c2ccc([N+](=O)[O-])s2)c2ccccc2N1	·	-3	7	-2	·	·
CC(OC(=O)/C=C/c1cccs1)C(=O)Nc1ccc(C(N)=O)cc1 (stereo unspecified)	·	0	0	3	·	·
COc1ccc(C(C)=O)cc1CSc1ccc(S(=O)(=O)N2CCCCC2)cn1	·	29	0	-3	·	·
Cc1ccccc1NC(=O)COC(=O)c1cccc(S(=O)(=O)N2CCCCC2)c1	·	-2	0	6	·	·
Cc1onc(-c2c(F)cccc2Cl)c1C(=O)Nc1ccc(Cl)c(S(=O)(=O)N(C)C)c1	·	15	-3	-9	·	·
Cc1cccc(C(=O)OCC(=O)NC(=O)c2ccccc2)c1O	·	-3	1	2	·	·
O=C(NCCC(=O)N1CCN(S(=O)(=O)c2ccccc2Cl)CC1)Nc1ccccc1	·	9	3	-2	·	·
CCOc1ccc(NC(=O)CN2C(=O)NC(CCc3ccccc3)C2=O)cc1OCC (stereo unspecified)	·	-1	3	2	·	·
Cc1cc(Cl)ccc1NC(=O)CN(C)C1=NS(=O)(=O)c2ccccc21	·	-4	-3	2	·	·
C[C@@H]1CN([C@@H](C)CO)C(=O)c2cc(C#CC3CCCC3)cnc2O[C@H]1CN(C)C(=O)C1CCCCC1	·	·	·	·	10	39[16.7 µM]

These rows are one share of the data, so the mix of outcomes need not match the whole.
